High-throughput results deposited in PubChem BioAssay by National Center for Advancing Translational Sciences (NCATS).
Rango complex inh: Rango-importin beta binding inhibition; Rango CFP/YFP FRET sensor + importin beta, 45 min; Potency, µM (titrated, usually from 92.2 µM), for inactives: at the top dose inhibition of complex formation; 0.031% of 340,000 active; active = rising FRET ratio curve, often small or poorly fitted; inconclusive = mostly compound fluorescence or quenching in the first reads; inactive = flat curves in all reads;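 note: potency is the fitted concentration of half-maximal effect; 0% = DMSO wells and 100% = buffer wells lacking importin beta; nearly all actives have a fitted effect of over 15% in size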
Target sequence (Q14974 whole entry, looked up): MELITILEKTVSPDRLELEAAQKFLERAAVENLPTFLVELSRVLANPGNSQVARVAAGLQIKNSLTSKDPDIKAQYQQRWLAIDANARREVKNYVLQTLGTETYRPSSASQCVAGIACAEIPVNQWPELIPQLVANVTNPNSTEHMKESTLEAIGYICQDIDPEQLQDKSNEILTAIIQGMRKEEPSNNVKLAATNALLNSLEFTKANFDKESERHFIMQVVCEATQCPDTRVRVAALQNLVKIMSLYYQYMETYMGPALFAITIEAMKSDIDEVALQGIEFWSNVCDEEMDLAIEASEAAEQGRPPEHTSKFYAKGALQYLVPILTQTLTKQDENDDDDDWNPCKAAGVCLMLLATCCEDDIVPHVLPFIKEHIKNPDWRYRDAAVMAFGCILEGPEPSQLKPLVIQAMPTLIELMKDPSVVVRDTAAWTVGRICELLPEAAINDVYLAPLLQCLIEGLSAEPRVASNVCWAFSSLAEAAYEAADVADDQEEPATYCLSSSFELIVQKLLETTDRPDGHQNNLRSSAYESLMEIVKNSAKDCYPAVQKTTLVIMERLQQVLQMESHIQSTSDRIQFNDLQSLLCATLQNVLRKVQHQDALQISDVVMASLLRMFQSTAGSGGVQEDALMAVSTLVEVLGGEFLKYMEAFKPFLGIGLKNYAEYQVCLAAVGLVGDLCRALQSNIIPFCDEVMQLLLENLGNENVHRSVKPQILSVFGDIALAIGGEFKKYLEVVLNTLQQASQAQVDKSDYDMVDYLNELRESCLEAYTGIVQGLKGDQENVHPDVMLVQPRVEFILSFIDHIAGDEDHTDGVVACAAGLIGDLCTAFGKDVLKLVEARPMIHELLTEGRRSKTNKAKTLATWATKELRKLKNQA
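FRET biosensor (snurportin 1 IBB flanked by EYFP and cerulean), 50 nM, with compound 5 min, then 0.125 microM importin beta in PBS, 1 mM DTT, 0.02% Tween-20, 0.1% BSA. CFP/YFP ratio read after 45 min at room temperature; pre-read flags interference.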
Rango release inh: inhibitors of RanGTP-induced Rango-importin beta complex dissociation; O95149+P62826; Biochemical FRET Rango-importin beta, RanGTP-induced dissociation; Potency, µM (series often up to 46.1 µM), for the others: at the top dose activity change, negative = inhibition; 0.071% of 340,000 active; active means falling FRET ratio curve, often poorly fitted, with flat reads before Ran was added; inconclusive means other falling curves, or compound fluorescence or quenching; inactive means flat or rising ratio curve;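 note: potency is the fitted concentration of half-maximal effect; % of control where 0% means no effect; nearly all actives have a fitted effect of over 45% in size; -100% = wells without RanGTP and RCC1; the record marks most hits as doubtful in a second field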
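Rango/importin beta premix (0.1/0.25 uM final), PBS + 1 mM DTT + 0.02% Tween-20 + 0.1% BSA; cpd 5 min RT; FRET pre-read; + RanGTP-RCC1 (0.6 uM Ran, 2 mM GTP, 0.2 uM RCC1); 45 min RT; FRET post-read, ex 430, em 486/530 nm.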
miR-21 FLuc: raises the signal of a miR-21 reporter; HeLa miR-21 FLuc reporter, luciferase, 48 h; AID 2288; Potency, µM (top dose mostly 38.3 µM), for inactives: top-dose reporter change, positive = more light; 340,000 tested, under 10 active; active = well fitted rising curve with a large enough effect; inconclusive = small, poorly fitted or top-dose-only effect; inactive = no such curve, though single readings can be large or run the other way;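 note: % of control where 0% means no effect; miR-21 action dims this reporter so a rising signal means less miR-21 action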
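Compounds were titrated across several concentrations (up to approximately 40 uM) and incubated 48 hours with HeLa miR-21-FLuc reporter cells (miR-21 target sequence downstream of FLuc, endogenous miR-21). Readout was firefly luciferase luminescence after lytic detection reagent.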
GLA inh pH 4.5: blocks human alpha-galactosidase A at pH 4.5 | 230,000 tested, under 10 active | AID 1467 | activity change, negative = inhibition, % at 105 µM | purified enzyme, 4-MU-alpha-Gal fluorescence, pH 4.5; inconclusive = small, poorly fitted or top-dose-only inhibition, or a rising curve; inactive = flat fitted curve, though single readings scatter; no compound was filed as active;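 note: 0% = full activity with enzyme and -100% = basal without enzyme; dose as in the result columns while the protocol names 77 µM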
* = called active by the depositor; ? = inconclusive; nt = not tested or not shown; & = joins results of further samples; [ ] = another dose, or the depositor's remark. Some of the compounds tested, so the mix of outcomes need not match the whole.

Rango complex inh	Rango release inh	miR-21 FLuc	GLA inh pH 4.5	mol
-0.1%	8.8%	22.3%	-2.7[21.1 µM]	O=C(NCCCN1CCN(c2ccc(F)cc2)CC1)Nc1ccc([N+](=O)[O-])cc1
?	3.4%	-2.2%	-14.2	CCC1=NN(C(=O)Cc2ccc([N+](=O)[O-])cc2)C(O)(c2ccc(Br)cc2)C1 (stereo not given)
-0.7%	-6.5%	-1.3%	-0.8	Cc1cccc(Cn2ccc(-c3ccc(Cl)cc3)c(C#N)c2=O)c1
0.0%	-3.6%	-59.7%	0.9	Cc1ccnc(NC(=O)c2ccoc2C)c1
-2.0%	-0.3%	-19.2%	nt	COc1ccc2c(c1)CCc1cn[nH]c1-2
3.4%	12.1%	10.6%	-1.3	Cc1ccc(SC(=O)c2c(C)noc2-c2cc(C)on2)cc1
?	-3.4%	-3.3%	11.1	Cc1cccc2cc(CN(C(=S)NCC(C)C)C3CCCC3)c(=O)[nH]c12
0.3%	-11.5%	0.7%	6.7	CCCCNS(=O)(=O)c1ccc2nc(-c3cccnc3)cc(C(=O)NCCCOC)c2c1
-2.5%	2.5%	26.3%	-8.3	Clc1ccc(C[n+]2cc(-c3ccccc3)n3c2CCC3)cc1
-0.9%	-0.1%	-5.7%	3.4	C=CCOC(=O)COc1ccc2c(C)c(CC)c(=O)oc2c1
0.0%	8.5%	-2.2%	nt	CC(OC(=O)c1ccc(NS(=O)(=O)c2ccc3[nH]c(=O)[nH]c3c2)cc1)C(N)=O (stereo not given)
0.0%	?	-1.8%	2.5	CC(C)(C)c1ccc(C(=O)NCc2nnc(SCC(=O)N3CCCc4ccccc43)n2-c2ccccc2)cc1
1.3%	-10.6%	0.7%	7.8	NC(=O)C1(N2CCCCC2)CCN(C(=S)Nc2ccc(S(N)(=O)=O)cc2)CC1
-6.3%	-10.3%	1.4%	nt	Cc1ccc[n+](CC(=O)Nc2cccc(Cl)c2)c1
-1.1%	0.3%	-9.9%	-2.5	NS(=O)(=O)c1ccc(CCn2c(=S)[nH]c3ccc(F)cc3c2=O)cc1
?	-1.3%	-12.6%	6.7	CCOC(=O)c1c(NC(=O)C(C)Sc2cn(C)c3ccccc23)sc2c1CCC2 (stereo not given)
4.8%	1.6%	0.5%	nt	O=C(O)[C@@H]1CSC2c3ccccc3C(=O)N21 (stereo not given in full)
-1.6%	-6.0%	-3.3%	-5.5	N#CCSc1nc2c(c(=O)n1Cc1ccccc1)C1(CCCC1)Cc1ccccc1-2
?	?	-8.6%	9.4	CCOc1cc(/C=C2/C(=N)N3C=CSC3=NC2=O)ccc1OCCCOc1ccccc1C
5.9%	56.5%	-39.3%	0.9	Cc1c(Nc2nc3ccccc3nc2NS(=O)(=O)c2ccccc2)c(=O)n(-c2ccccc2)n1C
3.4%	2.1%	-5.1%	-0.6	COC(=O)c1cc2occc2n1Cc1nc(-c2ccccc2Cl)oc1C
3.9%	1.2%	-1.5%	nt	CCN(CC)CCNC(=O)C(=O)Nc1cc2c3c(c1)CC(=O)N3CCC2
0.7%	-7.2%	-4.4%	-2.8	Cc1ccc(Cl)cc1N1CCN(Cc2cc3c(cc2O)CCC3)CC1
-4.9%	-2.7%	nt	nt	C=CCN(c1ccccc1)S(=O)(=O)c1cccc(C(=O)Nc2ccc(N3CCOCC3)cc2)c1
-0.8%	-5.0%	-5.6%	1.2	CCNC(=S)NNC(=O)CCn1cc(C)cn1

Part of the list above, bar-delimited.
Compound | Rango complex inh | Rango release inh | miR-21 FLuc | GLA inh pH 4.5
COC(=O)c1cc2occc2n1Cc1nc(-c2ccccc2Cl)oc1C | 3.4% | 2.1% | -5.1% | -0.6
Cc1ccc[n+](CC(=O)Nc2cccc(Cl)c2)c1 | -6.3% | -10.3% | 1.4% | nt
CCOc1cc(/C=C2/C(=N)N3C=CSC3=NC2=O)ccc1OCCCOc1ccccc1C | ? | ? | -8.6% | 9.4
Cc1c(Nc2nc3ccccc3nc2NS(=O)(=O)c2ccccc2)c(=O)n(-c2ccccc2)n1C | 5.9% | 56.5% | -39.3% | 0.9

Other structures follow.
Rango complex inh	Rango release inh	miR-21 FLuc	GLA inh pH 4.5	mol
?	?	-1.2%	nt	COc1ccc(CCNC(=O)[C@H](C)NC(=O)N2CCn3c2nc2ccccc23)cc1OC
?	?	-4.7%	4.4	COc1ccc(-c2cc(C(=O)OC3CCOC3=O)c3ccccc3n2)cc1 (stereo not given)
?	?	-27.5%	-2.6	C/C(=N\O)c1ccc2c3c([nH]c2c1)CCCC3
0.3%	-7.5%	-1.1%	-2.1	CC(=O)c1c(C)nc(-c2cccc([N+](=O)[O-])c2)n1O
-2.5%	1.4%	-4.3%	8.4	COC(=O)c1ccccc1NC(=O)C1CCCO1 (stereo not given)
2.6%	18.7%	-21.4%	nt	CCn1c(=O)c2ccccc2n(Cc2ccccc2C)c1=O
2.3%	6.9%	-1.4%	2.3	CS(=O)(=O)N1CCc2cc(C(=O)NC3CC3)ccc21
?	4.8%	-4.2%	-2.2	Cc1ccc(C(=O)N/N=C\c2ccccn2)cn1
1.4%	-8.8%	-41.3%	-1.5	COc1cccc(C(=O)NCC(=O)N2CCC(C)CC2)c1
0.7%	2.5%	-0.9%	-13.6	O=C(COC(=O)c1cccnc1Cl)c1ccc(OC(F)F)cc1
0.2%	-2.8%	nt	nt	COc1ccc(C(=O)COC(=O)CCCN=C2NS(=O)(=O)c3ccccc32)c(OC)c1
-0.3%	51.0%	nt	nt	COC(=O)C(CC(C)C)N(Cc1cc(OC)cc(OC)c1)S(=O)(=O)c1ccccc1Br (stereo not given)
?	5.7%	-3.9%	-5.7	CSCCC(NC(=O)c1ccccc1)C(=O)NC1CC1 (stereo not given)
1.4%	8.5%	-0.5%	nt	COc1ccc(-c2cc(C(=O)NCCCn3ccnc3)c3ccccc3n2)c(OC)c1
-3.1%	2.1%	-3.8%	-3.0	CC(C)c1onc(C(=O)NCc2ccc(Cl)cc2)c1[N+](=O)[O-]
0.3%	2.8%	-27.2%	8.5	COc1ccc(OC)c(NC(=S)N2CCc3ccccc3C2)c1
-0.1%	0.4%	-0.2%	-2.5	NC(=O)C1(N2CCCCC2)CCN(C(=O)NC23CC4CC(CC(C4)C2)C3)CC1
-1.3%	15.0%	nt	nt	COc1cccc(C(=O)Nc2cc3c4c(c2)CC(=O)N4CCC3)c1
7.0%	-2.9%	-4.2%	nt	O=C(C1CCC(=O)N(C2CC2)C1)N1CCN(c2ccc(Cl)cc2)CC1 (stereo not given)
-0.9%	10.4%	-5.1%	2.9	Nc1nnn(CC(=O)N/N=C/c2cccc3ccccc23)n1
0.8%	-5.7%	-0.7%	-0.3	NS(=O)(=O)c1ccc(NC(=O)CN2CCCN(S(=O)(=O)c3ccc(F)cc3)CC2)cc1
-1.1%	19.1%	-2.6%	-13.0	O=C(CSCc1ccc(Cl)cc1Cl)Nc1ccccc1C(=O)Nc1ccc(C(=O)O)cc1
-5.8%	1.8%	-6.8%	3.1	CC(NC(=O)c1ccc(OC2CCN(S(=O)(=O)N(C)C)CC2)cc1)C1CC1 (stereo not given)
7.3%	9.2%	-1.7%	-25.1	CCCN1Cc2cccc(C(=O)NC(CC(=O)OCC)c3ccc(C)cc3)c2C1=O (stereo not given)
4.2%	4.8%	0.0%	-12.3	COC(=O)/C(NC(C)=O)=C(\C)c1ccc(Cl)cc1

No new results follow: entries from further up.
Rango complex inh	Rango release inh	miR-21 FLuc	GLA inh pH 4.5	mol
?	?	-1.2%	nt	COc1ccc(CCNC(=O)[C@H](C)NC(=O)N2CCn3c2nc2ccccc23)cc1OC
?	?	-4.7%	4.4	COc1ccc(-c2cc(C(=O)OC3CCOC3=O)c3ccccc3n2)cc1 (stereo not given)

New compounds follow:
Rango complex inh	Rango release inh	miR-21 FLuc	GLA inh pH 4.5	mol
-4.4%	-9.1%	nt	nt	CC1(c2nnc(Cc3ccccc3)o2)CC(c2ccc(Cl)cc2)=NO1 (stereo not given)
6.0%	2.5%	-4.7%	8.0	O=C1COc2ccc(C(=O)CSc3nc4ccccc4c(=O)n3-c3ccc(Cl)c(Cl)c3)cc2N1
0.2%	-16.6%	-4.4%	15.3	Cc1ccc(S(=O)(=O)CC(N)=O)cc1
-2.0%	12.7%	4.6%	15.1	Cn1c(N)c(C(=O)COC(=O)CC2CC3CCC2C3)c(=O)n(C)c1=O (stereo not given)
-4.7%	3.4%	-3.2%	-1.4&7.3&-6.2	CC[N+](C)(C)c1cccc(O)c1
1.6%	13.2%	-4.7%	-13.4	CCNc1cc(N2CCCC2)ccc1[N+](=O)[O-]
-4.1%	5.6%	-12.9%	-0.4	Cc1ccc(NC(=O)Cn2ccc([N+](=O)[O-])n2)cc1C
-1.8%	29.7%	-53.7%	-2.6	COc1ccc(C(=O)CNc2ccccc2CO)cc1
6.8%	-16.0%	-14.9%	nt	O=C(CN1CCOCC1)Nc1nc2ccc(Cl)cc2s1
3.1%	-1.2%	-7.0%	3.7	COC(=O)c1cc(O)c(O)c(O)c1
2.4%	-14.0%	-31.8%	nt	Cc1ccc2nc(N3CCOCC3)c(C=O)cc2c1
-1.6%	12.8%	0.3%&16.8%	nt	COc1ccc(CNS(=O)(=O)c2cc(Br)cc3c2N(C(C)=O)C(C)C3)cc1 (stereo not given)
-0.5%	-5.9%	-48.8%	-1.9	COc1ccc2c(c1)CCC/C2=N\Nc1nc(C(=O)NN)cs1
1.4%	38.1%	0.0%	4.7	Cc1c(N(C(=O)c2ccccn2)C2(C(=O)NC3CCCCC3)CCCCC2)c(=O)n(-c2ccccc2)n1C
?	?	-0.5%	3.3	N#C/C(=C/c1ccc(N2CCCCCC2)o1)c1cccc(F)c1
4.9%	-5.1%	25.7%	-19.5	COc1ccc(C(=O)c2cc([N+](=O)[O-])ccc2N2CCOCC2)cc1
2.9%	-9.4%	-10.5%	2.9	C=C(C)Cn1c(SCC(=O)NCc2ccco2)nc2sc3c(c2c1=O)CCC3
0.2%	10.5%	-73.6%	nt	Cc1ccc(NC(=O)C2Cc3ccccc3O/C2=N\O)cc1C (stereo not given)
0.6%	0.3%	-4.4%	-2.1	S=c1ccc2ccccc2[nH]1
-0.8%	-11.3%	nt	nt	O=C(NN=Cc1ccc2c(c1)OCO2)C1CC1
4.5%	11.4%	-5.4%	nt	Cc1cc(C)c(C#N)c(N2CCN(c3ccccc3F)CC2)n1
-3.9%	17.8%	-4.6%	-0.4	COc1ccc(-c2nc(CS(=O)CC(=O)NC3CCCc4ccccc43)c(C)o2)cc1OC (stereo not given)
-4.1%	8.8%	0.0%	-9.9	Cn1cnnc1SCc1ccc(C(=O)N=Nc2c(O)n(Cc3ccc(Cl)cc3)c3ccccc23)cc1
-0.3%	-6.8%	0.0%	0.7	COc1ccc(C(=O)OCC[N+]2(C)CCCCC2)cc1
-3.8%	-12.8%	nt	nt	Cc1ccc(S(=O)(=O)N2CCN(c3ncnc4sccc34)CC2)cc1C

The listing continues.
Rango complex inh	Rango release inh	miR-21 FLuc	GLA inh pH 4.5	mol
?	?	-0.5%	-16.3	CCOC(=O)/C(C#N)=C/C1=C(N2CCOCC2)C(C)(C)OCC1
0.1%	-5.3%	nt	nt	CN1CCN(S(=O)(=O)c2ccc(NC(=O)c3ccc([N+](=O)[O-])cc3)cc2)CC1
-2.6%	3.3%	0.0%	4.0	Cc1ccc(S(=O)(=O)NC2CCCCC2)c(C)c1NS(C)(=O)=O
-0.1%	1.2%	0.2%	nt	Cc1cccc(/C=N/NC(=O)c2ccc(NC(=O)c3ccc(F)cc3)cc2)n1
4.7%	3.7%	-6.3%	7.2	CC(CCc1ccccc1)NC(=S)NC(=O)c1ccco1 (stereo not given)
-2.0%	-15.8%	0.1%	-5.6	COc1ccc(CCNC(=O)c2c(C)nc3ccccn23)cc1
1.3%	8.2%	-12.0%	-0.6	COc1ccccc1NC(=O)CN1CCN(Cc2ccccc2)CC1
